Screening results: PubChem, ICCB-Longwood Screening Facility, Harvard Medical School
MgrA DNA FP: alters Staphylococcus aureus MgrA binding to DNA | fluorescence polarization | 84,000 compounds, 0.13% hits | AID 602314 | inhibition, %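 (about 10 µg/mL by stock and volumes)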;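 active means above 50% in either of two replicates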;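 further: 0% = protein plus DNA without compound and 100% = DNA alone without protein; higher means less MgrA bound to DNA so lower polarization; one replicate is shown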
Sa helicase inh: S. aureus DNA helicase inhibition. purified S. aureus helicase, fluorescence unwinding assay; about half of the hits fall short of the stated cut. 120,000 compounds, 0.05% hits. inhibition, %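 (tested at about 80 µM)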;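 active means both duplicates at 50% or more, or one of them with a favoured structure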;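 further: 0% = mean of negative control wells and 100% = mean of positive control wells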
* = called active by the depositor; . = no result given. Some of the compounds tested. The share of hits here may be higher or lower than overall.

SMILES | MgrA DNA FP | Sa helicase inh
COc1ccc(-c2nnn(CC(=O)N(Cc3ccco3)C(C(=O)NCC3CCCO3)c3ccco3)n2)cc1 (configuration not stated) | 2.3 | 3
Cc1ccsc1CNC(=O)c1ccccc1C(=O)O | -1.4 | .
CCOc1ccc(CNc2ccc(N3CCN(Cc4ccccc4)CC3)cc2)cc1 | 1.1 | 11
CC(NCC(=O)Nc1ccccc1C(=O)NC1CC1)c1ccc(F)cc1 (configuration not stated) | . | -7
Nc1c(Nc2ccc(C(=O)O)cc2)c2ccccc2oc1=O | . | 18
COc1ccc(C2=Nc3ccccc3NC(C3CC3)=N2)cc1 | . | 13
NC(=O)c1cccc(NC(=O)C(F)(F)F)c1 | -0.8 | -1
Cc1ccc(CC2SC(N)=NC2=O)cc1Cl (configuration not stated) | . | -17
CN(C1CCCCC1)S(=O)(=O)c1ccc(C(=O)Nc2ccccc2)cc1 | . | 13
COC(=O)c1cc(OC(=O)c2ccc(=O)[nH]c2)cc(C(=O)OC)c1 | . | 0
COc1ccc2nc3oc(C(=O)NCCCN4CCc5ccccc5C4)cc3cc2c1 | . | -11
Cc1nc(COc2ccccc2Cl)sc1-c1ccnc(N)n1 | -0.5 | .
N#CCc1nc2sc3c(c2c(=O)[nH]1)CCCC3 | -4.9 | -77
COC(=O)N1N=C(CC(C)C)CC1(O)C(F)(F)F (configuration not stated) | 1.1 | 5
CCOC(=O)c1[nH]c(CSc2nncs2)c(C(=O)OCC)c1C | . | -18
CCn1cc(C(=O)NN)c(=O)c2cc(F)c(N3CCCC3)cc21 | 1.2 | -3
OC1(Cc2ccccc2)CCNCC1 | 0.9 | .
N/C(=N\S(=O)(=O)c1ccc(Br)cc1)c1ccc(Cl)cc1 | -0.5 | 10
CCOc1cc(/C=C2/NC(=S)NC2=O)ccc1OCc1ccc(Cl)cc1Cl | 3.2 | .
CC(Oc1ccc(Cl)cc1Cl)C(=O)NC1=NCCS1 (configuration not stated) | -0.4 | .
CCN1CCc2c(OCc3ccc(C)cc3)cccc2C1=O | . | -1
CC(C)n1ncc2c(C(=O)NC3=NCCS3)cc(-c3ccccc3)nc21 | . | -16
O=C(Nc1ccc2nc3n(c(=O)c2c1)CCCCC3)c1ccccc1Cl | . | 28
CC(=O)Nc1ccc(C(=O)OCC(=O)N2CCCC2=O)cc1 | . | 14
CCOC(=O)c1c(C)oc2nc(CSc3nnc(-c4ccccc4)n3-c3ccc(Cl)cc3)nc(N)c12 | . | -1
CC(C)C(=O)NCc1ccc2[nH]c3c(c2c1)CCCC3 | . | 6
O=C(COCc1cc(-c2ccco2)on1)N1CCCc2ccccc21 | . | 29
O=C(CSc1nc(-c2ccccc2)nc2c1CCCC2)N1CCOCC1 | -3.3 | 8
COc1ccccc1N(CN1CCCC1=O)C(=O)COc1ccccc1 | -1.4 | 18
Cc1cc(=O)oc2cc(OCC(=O)Oc3ccc4c(c3)OCO4)ccc12 | . | 7
O=C(CN1CC(=O)Nc2ccccc21)Nc1ccc2c(c1)OCCCO2 | . | 0
COc1ccc(N2C(=O)CSC23CCC(C)CC3)cc1 (configuration not stated) | . | 28
CCCCCC(O)CCCC(=O)O (configuration not stated) | 0.8 | .
COC(=O)c1sccc1Oc1nccnc1C#N | -0.9 | .
CC(C)CC(=O)N1C(=O)c2cccc3c(S(=O)(=O)N(C)C)ccc1c23 | . | 14
Cc1ccc(S(=O)(=O)NCCc2cc3ccc(C)cc3[nH]c2=O)cc1 | 5.8 | 6
O=C(CN1C(=O)N(c2ccc(Cl)cc2)S(=O)(=O)c2ccccc21)N1CCCc2ccccc21 | 0.4 | 3
COc1ccc2[nH]c(C)c(CCN(Cc3cccs3)C(=S)Nc3cccc(C)c3)c2c1 | 2.6 | 7
O=C(O)CC1(CC(=O)Nc2ccc3ccccc3n2)CCCCC1 | -1.7 | .
O=[N+]([O-])c1ccc(N2N=C(c3ccccc3)CC2c2ccc(O)cc2)cc1 (configuration not stated) | -4.2 | .
Cc1ccc(S(=O)(=O)Nc2ccc(C(O)(C(F)(F)F)C(F)(F)F)cc2)cc1 | . | -9
Nc1c(C(=O)c2ccco2)sc2nsc(SCCN3CCOCC3)c12 | 13 | .
Cc1nc2ccccc2c2oc(C(=O)NCCC3=CCCCC3)cc12 | . | 8
Cc1ccc(NC(=O)CC2SC(=Nc3ccc(C)cc3C)N(CCN3CCOCC3)C2=O)cc1 (configuration not stated) | . | -1
c1ccc(C2=N[C@H](c3ccccc3)[C@H](c3ccccc3)N2)cc1 | -0.8 | .
COC(=O)C1=C(C)N(c2ccccc2)/C(=C/c2ccc(OC)cc2)C1=O | 6.0 | 14
O=C(N/N=C/C=C/c1ccccc1)c1n[nH]c2c1CCC2 | . | 4
Cn1nc(C(=O)NCC2CCCO2)c2ccccc2c1=O (configuration not stated) | . | 7
CCOc1ccc(C(=O)NC2CCN(CC(=O)NCc3ccccc3)CC2)cc1 | 1.6 | 0
CCOC(=O)C1=C(CC)Nc2ccccc2N=C1N | . | 5

Going on with the list:
SMILES | MgrA DNA FP | Sa helicase inh
O=C(Nc1ccc2nc(N3CCOCC3)sc2c1)C1CCCN1C(=O)c1cccs1 (configuration not stated) | . | -7
CCCn1cc(SCC(=O)Nc2nnc(SCC)s2)c2ccccc21 | . | -12
COc1ccc(Cl)cc1N(CC(=O)Nc1ccccc1C(=O)N1CCOCC1)S(C)(=O)=O | 0.7 | 2
CC(C)(C)C1CCC(OC(=O)c2ccncc2)CC1 (configuration not stated) | 2.7 | -23
COc1ccc(N2C(=O)CC(C(=O)NC3CCCCC3)C2c2ccc(F)cc2)cc1 (configuration not stated) | 0.3 | 11
COc1cccc(CNCC(=O)N2C(C)CCCC2C)c1 (configuration not stated) | -6.4 | 5
COc1ccc(OCC(=O)Sc2ccc(Cl)cc2)cc1 | -1.5 | 10
Cc1c(Br)c([N+](=O)[O-])nn1CC(=O)Nn1c(-c2cccs2)nc2ccccc2c1=O | -2.4 | .
Cc1cccc(C)c1N(CC(O)Cn1c2ccccc2c2ccccc21)S(C)(=O)=O (configuration not stated) | . | -10
C=CCc1c(C)[nH]c(=S)[nH]c1=S | -0.6 | 1
NC(=O)Cc1ccc(C(=O)CSc2nnc(-c3cccs3)n2C2CC2)s1 | . | -7
Cc1ccc(-c2nc(CS(=O)CC(=O)NC3CC3)c(C)o2)cc1 (configuration not stated) | . | -8
O=C(Cc1n[nH]c(=O)c2ccccc12)NCCN1C(=O)S/C(=C\c2ccc(F)cc2)C1=O | . | -5
CC(C)NC(=O)c1cnn(-c2cccc(F)c2)c1-n1cccc1 | . | 8
CCN(CC)C(=O)c1cc(-c2ccc(Cl)c(Cl)c2)on1 | 1.6 | 6
NC1=NCC(O)=C1c1nc2ccccc2s1 | . | 6
COC(=O)C1=CN(Cc2ccc(Cl)cc2)C=C(C(=O)OC)C1c1cccc(Cl)c1 | -1.2 | 9
N#CCCSc1nsc(N)n1 | 0.0 | 5
Nc1ncncc1C(=O)O | . | -13
N=c1n(CCO)c2ccccc2n1CCOc1ccccc1 | . | 4
O=C(O)Cc1ccc(-c2ccccc2)cc1 | 3.3 | .
N#CC(C#N)(Cc1ccccc1)Cc1ccccc1 | 0.4 | .
Cc1oc2cc(O)ccc2c(=O)c1-c1ccc2c(c1)OCCO2 | . | -13
NNC(=O)c1ccc(CS(=O)(=O)c2ccccc2)o1 | . | 5
O=C(Cn1ccc2cc(S(=O)(=O)N3CCCC3)ccc21)NCCc1ccccc1 | . | -29
COc1ccc(CCN=C2SCCN2C(=O)COc2ccccc2C#N)cc1 | . | -5
CCn1c(N)c(-c2csc(C)n2)c(=O)n(CC(=O)NCCC2=CCCCC2)c1=O | . | -24
O=C1c2ccccc2C(=O)N1CSc1nc2ccccc2[nH]1 | . | 3
NC(N)=NC(N)=Nc1cccc(C(=O)O)c1 | . | -12
NC(=O)c1cc(-c2ccccc2)sc1N | . | -5
CC(C)=NNC(=O)Cc1cn2ccsc2n1 | . | -4
Cc1nc(CNS(=O)(=O)c2cccs2)cs1 | -0.4 | 7
O=[N+]([O-])c1cc(C(F)(F)F)ccc1Oc1ccc(Cl)cc1C1CCCCC1 | -6.1 | .
Cc1nnc2c3ccccc3nc(Nc3ccc4c(c3)OCCO4)n12 | . | 17
COc1ccc2oc(-c3ccc(OC)c(OC)c3)cc(=O)c2c1 | 2.8 | 9
O=C(CSc1nc2scc(-c3ccccc3)c2c(=O)n1-c1ccccc1)c1ccco1 | . | -4
CS(=O)(=O)N(c1ccccc1)C1CSC1 | -2.3 | 8
COC(=O)c1sc2c(c1N(C(C)=O)C(C)=O)CSc1ccc(Cl)cc1-2 | -0.2 | .
Cc1ccc(OCc2n[nH]c(=S)n2C2CCCCC2)c2c1CCC2 | 1.1 | .
CCn1c(C(=O)NCc2ccc(Cl)cc2)cc2oc3ccccc3c21 | . | -25
NC(=O)NCCc1cccs1 | . | 13
O=C(Nc1ccccc1-c1nc2ccccc2o1)c1cccs1 | . | -6
CCS/C(=C(\C#N)C(N)=O)c1ccc(-c2ccccc2)[nH]1 | 2.5 | 4
CCCNS(=O)(=O)c1ccc(NC(=O)COc2ccccc2)cc1 | 7.3 | 16
O=c1cnc2ccccc2[nH]1 | . | 26
CCCCN(CC)C(=O)Cn1ncc2c([nH]c3ccc(C)cc32)c1=O | . | 10
COCCNC(=O)c1nnc(Cc2ccc(OC)c(OC)c2)o1 | . | 32
CCn1c(=O)n(-c2ccccc2)c(=O)c2c3c(sc21)CN(C(C)=O)CC3 | 7.8 | 2
COC(=O)c1cccc2c(N=O)c(O)[nH]c12 | . | 17
CCc1cccc(CC)c1NC(N)=S | -6.8 | .

Next section
SMILES | MgrA DNA FP | Sa helicase inh
CC(C)C(NC(N)=O)C(=O)O (configuration not stated) | . | -11
CCOC(=O)c1cnn(-c2ccccc2)c1C | -2.0 | .
COc1ccc(C2=NN3C(C2)c2ccccc2OC3c2ccc(Cl)cc2)cc1OC (configuration not stated) | -1.3 | .
O=c1[nH]c(SCc2ccc(Cl)cc2Cl)nc2ccccc12 | -1.1 | .
Cc1c(NC(=S)NC(=O)c2ccccc2)c(=O)n(-c2ccccc2)n1C | . | 25
C/C(=C/C(=O)C(F)(F)C(F)F)Nc1ccccc1 | 2.9 | 3
CCc1cccc(NS(=O)(=O)c2ccc3c(c2)CCC(=O)N3)c1 | 1.1 | 3
COC(=O)CCC1CCCCC12OCCO2 (configuration not stated) | . | 6
Cc1onc(-c2ccccc2Cl)c1C(=O)N(C)C1CCCCC1 | . | -23
CC1(C)Cc2ccccc2-c2nc(-c3ccccc3)n(N)c(=O)c21 | 0.1 | 7
CCOC(=O)C1=C(C)N=c2s/c(=C\c3cc(Br)c(O)c(OC)c3)c(=O)n2C1c1cccc(OC)c1 (configuration not stated) | -2.9 | .
O=C(NCc1cccnc1)C1=CCN(S(=O)(=O)c2ccc(F)cc2)CC1 | . | -17
COC(=O)C1=C(N)OC2=C(C(=O)CCC2)C1c1cccs1 (configuration not stated) | -1.7 | .
COc1ccc(S(=O)(=O)NC(C)C)cc1-n1cnnn1 | -4.7 | -1
CCCn1c(=O)n(C)c(=O)c2c(SCC(=O)N3CCCC3=O)nc(C(C)C)nc21 | . | -2
CCN(Cc1ccccc1)C(=O)Nc1cn(C)c(=O)c2ccccc12 | 1.1 | 10
COc1cc(OC)nc(NC2OC(=O)c3ccccc32)n1 (configuration not stated) | 4.5 | 8
Cc1cccc(C(=O)Oc2ccc(C)c(C)c2)c1 | 3.9 | -4
COc1ccc2[nH]c(=O)cc(C(=O)O)c2c1 | 29 | -1
CCN(CC)S(=O)(=O)c1cccc(C(=O)OCC(=O)Nc2cccc(C#N)c2)c1 | . | 9
Cc1ccc(C(=O)N2CCN(C(=O)c3ccc(C)c(C)c3)C(C)C2)cc1C (configuration not stated) | . | 24
CCC(C)NC(=O)c1ccc(CS(=O)Cc2ccc(C)cc2)o1 (configuration not stated) | -0.3 | 17
COc1ccc(/C=C2\CCc3ccccc3C2=O)cc1COc1ccc(F)cc1 | 4.2 | 2
CN(CC(O)COCc1ccccc1F)C1CCCCC1 (configuration not stated) | . | -9

4 compounds out of the list above, arranged by the value under MgrA DNA FP, ascending.
SMILES | MgrA DNA FP | Sa helicase inh
N#CCCSc1nsc(N)n1 | 0.0 | 5
CCc1cccc(NS(=O)(=O)c2ccc3c(c2)CCC(=O)N3)c1 | 1.1 | 3
COc1ccc2[nH]c(C)c(CCN(Cc3cccs3)C(=S)Nc3cccc(C)c3)c2c1 | 2.6 | 7
COc1cc(OC)nc(NC2OC(=O)c3ccccc32)n1 (configuration not stated) | 4.5 | 8

Molecules shown so far with a thiophene ring, fused or not (16):
SMILES | MgrA DNA FP | Sa helicase inh
Cc1ccsc1CNC(=O)c1ccccc1C(=O)O | -1.4 | .
N#CCc1nc2sc3c(c2c(=O)[nH]1)CCCC3 | -4.9 | -77
COC(=O)c1sccc1Oc1nccnc1C#N | -0.9 | .
COc1ccc2[nH]c(C)c(CCN(Cc3cccs3)C(=S)Nc3cccc(C)c3)c2c1 | 2.6 | 7
Nc1c(C(=O)c2ccco2)sc2nsc(SCCN3CCOCC3)c12 | 13 | .
O=C(Nc1ccc2nc(N3CCOCC3)sc2c1)C1CCCN1C(=O)c1cccs1 (configuration not stated) | . | -7
Cc1c(Br)c([N+](=O)[O-])nn1CC(=O)Nn1c(-c2cccs2)nc2ccccc2c1=O | -2.4 | .
NC(=O)Cc1ccc(C(=O)CSc2nnc(-c3cccs3)n2C2CC2)s1 | . | -7
NC(=O)c1cc(-c2ccccc2)sc1N | . | -5
Cc1nc(CNS(=O)(=O)c2cccs2)cs1 | -0.4 | 7
O=C(CSc1nc2scc(-c3ccccc3)c2c(=O)n1-c1ccccc1)c1ccco1 | . | -4
COC(=O)c1sc2c(c1N(C(C)=O)C(C)=O)CSc1ccc(Cl)cc1-2 | -0.2 | .
NC(=O)NCCc1cccs1 | . | 13
O=C(Nc1ccccc1-c1nc2ccccc2o1)c1cccs1 | . | -6
CCn1c(=O)n(-c2ccccc2)c(=O)c2c3c(sc21)CN(C(C)=O)CC3 | 7.8 | 2
COC(=O)C1=C(N)OC2=C(C(=O)CCC2)C1c1cccs1 (configuration not stated) | -1.7 | .
